VDR inhibitor: Inhibitors of the vitamin D receptor (VDR): qHTS; 400,000 tested, 0.93% active; Potency, µM, without a hit: max response, negative = inhibition, hits mostly inhibitors; VDR-SRC2-3 peptide fluorescence polarization, 2 h; Vitamin D3 receptor (Homo sapiens), P11473; AID 504847, 2011; active means well fitted inhibition curve with a large enough effect; inconclusive means small, poorly fitted or top-dose-only effect, or another doubt; inactive means no such curve, though single readings can be large or run the other way; further: series mostly up to about 120 µM
Target sequence (P11473 whole entry, looked up): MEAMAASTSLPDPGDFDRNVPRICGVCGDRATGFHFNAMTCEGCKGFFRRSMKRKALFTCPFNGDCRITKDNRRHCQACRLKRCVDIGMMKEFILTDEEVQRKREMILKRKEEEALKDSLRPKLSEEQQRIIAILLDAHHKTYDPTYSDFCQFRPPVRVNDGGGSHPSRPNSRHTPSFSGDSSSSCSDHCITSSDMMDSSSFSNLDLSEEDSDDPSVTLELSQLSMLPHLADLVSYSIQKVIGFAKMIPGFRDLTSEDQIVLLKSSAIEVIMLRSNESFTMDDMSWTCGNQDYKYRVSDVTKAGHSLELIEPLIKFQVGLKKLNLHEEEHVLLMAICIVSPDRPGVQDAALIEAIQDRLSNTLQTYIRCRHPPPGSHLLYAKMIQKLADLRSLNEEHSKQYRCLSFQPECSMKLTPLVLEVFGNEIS
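After 23 nl compound addition and a short centrifugation, plates sat for 2 hours at ambient temperature; polarization of fluorescence then indicated loss of VDR binding to peptide SRC2-3.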
Active calls of the source: *; u = inconclusive; & = joins results of further samples. On the % scale 0 is the no-effect control and ±100 the full control effect; potency means the concentration at half of the fitted maximal effect. Only part of the results is shown. The share of hits here may be higher or lower than overall.

structure	VDR inhibitor
N#CCCCn1c(-c2ccccc2)noc1=O	-14.3%
CCOc1ccc(S(=O)(=O)Nc2c(C)n(C)n(-c3ccccc3)c2=O)cc1	0.1%
CCOC(=O)c1[nH]c2ccc(F)cc2c1NC(=O)CN1CCN(C/C=C/c2ccccc2)CC1	4.2%
O=C(N[C@@H](Cc1ccccc1)C(=O)OCc1ccccc1)c1ccco1	-11.3%
CCCCOc1ccc(C2CCC(C(C)=O)C(C)C2)cc1 (centres undefined)	-2.1%
CC(=O)NCc1ccc(-c2csc(NC(=O)CCCc3nc4ccccc4c(=O)[nH]3)n2)cc1	-11.0%
Cc1cc(C)n2nc(CNC(=O)c3cccc(N(C)C)c3)nc2n1	5.4%
COc1ccc(OC)c(NC(=O)CSc2nc(=O)n(CCN3CCOCC3)c3c2CCC3)c1	-10.6%
CSCCC1NC(=O)N(C(C)C(=O)Nc2cc(Cl)cc(Cl)c2)C1=O (centres undefined)	-16.5%
COC(=O)C1=CNC=C(C(=O)OC)C1c1cccc(OC)c1	-3.5%
CCOc1ccc(S(=O)(=O)N2CCc3ccccc3C2)cc1	8.5%
COC(=O)CSc1nc2cc(OC)ccc2n1C	-15.0%
CCOC(=O)C1C(=O)OC(C)(C)C1C(CC)C(=O)c1c(C)cc(C)cc1C (centres undefined)	3.3%
CCOc1ccc(NC(=O)c2c(NCc3cccnc3)sc3c2CCCC3)cc1	u
COc1ccc(OCCNC(=O)c2cccc(Oc3ccc(C(F)(F)F)cc3[N+](=O)[O-])c2)cc1	6.4%
O=C(NCCSc1ccc(Cl)cc1)c1ccc(CN2CCOCC2)cc1	-0.4%
Cc1ccc(-n2nc(C)c3c2OC(N)=C(C#N)C3c2ccccc2F)cc1 (centres undefined)	1.5%
O=C(OCCOc1ccc(Cl)cc1)c1cc(S(=O)(=O)N2CCCCC2)ccc1N1CCOCC1	2.7%
CCc1cc(-c2oncc2-c2ccc(OC)cc2)c(O)cc1OC	-4.3%
CC(C)CCC(CCN1CCCC1)c1ccc2c(c1)OCO2 (centres undefined)	-1.2%
CCOC(=O)c1oc2ccc(S(=O)(=O)Nc3ccc4c(c3)n(C)c(=O)n4C)cc2c1C	-9.7%
COc1ccc(S(N)(=O)=O)cc1C(=O)OCC(=O)Nc1sccc1C#N	15.1%
COc1ccccc1CC(=O)Nc1ccc(NC(=O)c2cccs2)cc1	-15.2%
O=[N+]([O-])c1ccc2nc(-c3ccccc3)[nH]c2c1	-6.5%
CCN(CC)CCCNCC(=O)Nc1cc(C)on1	-0.8%
CNC(=O)c1ccc(Nc2nnc(-c3ccc(C)c(S(=O)(=O)N4CCOCC4)c3)c3ccccc23)cc1	-11.6%
COC(CNC(=O)C1CCN(S(=O)(=O)c2cccc3nsnc23)CC1)OC	0.5%
Cc1ccc(/C=C2\SC(=S)N(CC(=O)Nc3cccnc3)C2=O)cc1	-6.7%
O=C(CCCn1c(=O)c2cccn2c2ccccc21)Nc1cccc(Cl)c1	7.5%
O=C1c2ccccc2C(=O)N1CCCP(=O)(O)CCc1ccccc1	-3.7%

Copied from the list.
VDR inhibitor, CSCCC1NC(=O)N(C(C)C(=O)Nc2cc(Cl)cc(Cl)c2)C1=O (centres undefined) is entered as -16.5%
VDR inhibitor, COC(=O)C1=CNC=C(C(=O)OC)C1c1cccc(OC)c1 is entered as -3.5%
VDR inhibitor, CCOC(=O)c1[nH]c2ccc(F)cc2c1NC(=O)CN1CCN(C/C=C/c2ccccc2)CC1 is entered as 4.2%
VDR inhibitor, Cc1ccc(/C=C2\SC(=S)N(CC(=O)Nc3cccnc3)C2=O)cc1 is entered as -6.7%
VDR inhibitor, O=C(OCCOc1ccc(Cl)cc1)c1cc(S(=O)(=O)N2CCCCC2)ccc1N1CCOCC1 is entered as 2.7%
VDR inhibitor, CCOc1ccc(S(=O)(=O)Nc2c(C)n(C)n(-c3ccccc3)c2=O)cc1 is entered as 0.1%

Other results follow:
structure	VDR inhibitor
O=C(CCc1ccccc1)NCc1ccccn1	-8.3%
CS/C(N)=N/C(=S)Nc1cccc(Cl)c1	-2.6%
Cc1ccc(NC(=O)CSCc2cnn(-c3ccccc3)c2-n2cccc2)c(Cl)c1	9.3%
CCOC(=O)c1cnc(-n2nc(C)cc2C)nc1Nc1cccc(C(=O)O)c1	12.8%
CCCCC(=O)Nc1c(-c2cccc(OC)c2)c(=O)c2ccccc2n1C	12.6%
COc1ccc(-c2cc(C(=O)N3CCN(Cc4ccc5c(c4)OCO5)CC3)on2)cc1OC	u
COc1ccc(S(=O)(=O)N2CCOCC2)cc1NC(=O)CCOc1ccc(C(C)(C)C)cc1	4.4%
Cn1c(O)c(N=NC(=O)CNC(=O)c2ccccc2)c2ccccc21	1.0%
CCOC(=O)c1ccc(NC(=O)C(C)Sc2nc(=O)cc(N)n2CCc2ccccc2)cc1 (centres undefined)	-23.7%
O=C(c1ccccc1)N1CCC(c2nc3c(nnn3Cc3ccccc3Cl)c(=O)[nH]2)CC1	-12.3%
O=[N+]([O-])c1ccc(O)c(-c2cc(C(F)(F)F)nc(-c3ccccc3)n2)c1	-15.3%
Cc1cc2nc(NC(=O)c3ccc(S(=O)(=O)N4CCOCC4)cc3)sc2cc1C	5.0%
CCOC(=O)c1ccc(S(=O)(=O)Nc2cc(C(=O)O)ccc2Cl)cc1	u
Cc1ccc(CN2CCC(CNC(=O)Nc3c(C)cccc3C)C2)cc1 (centres undefined)	-5.1%
COc1ccccc1-n1c(CNC(=O)c2ccco2)nnc1SCC(=O)Nc1cc(C)ccc1C	-27.0%
S=C(c1cn(CCOc2cccc3ccccc23)c2ccccc12)N1CCCC1	5.4%
C[C@@H](C(=O)Nc1ccc2ccccc2c1)[C@@H]1C[C@@]1(C)[C@@H](NC(=O)c1ccccc1)c1ccccc1	-3.2%
COc1ccc(S(=O)(=O)Nc2ncccc2C)c2ccccc12	-7.6%
COCCn1c(C)cc(C(=O)COC(=O)c2[nH]c(C)c(C(C)=O)c2C)c1C	-17.0%
O=C(Cn1cc(C(F)(F)F)cc(Cl)c1=O)Nc1cccc(Cl)c1	-5.3%
O=C(Nc1ccccc1)C1=C[C@H](c2ccc(Br)cc2)C[C@H](OCc2ccc(CO)cc2)O1	-7.6%
Cc1cc(=O)oc2cc(OC(C)C(=O)Nc3nccs3)ccc12 (centres undefined)	1.1%
Cc1nc(Sc2nnnn2C)c2c3c(sc2n1)CCC3	-7.0%
CC(C)Sc1nnc([C@H](Cc2ccccc2)NC(=O)OC(C)(C)C)o1	u
CC(Sc1ccccc1)C(=O)Nc1cccc(N(C)S(C)(=O)=O)c1 (centres undefined)	-19.0%
COc1ccc(C(=O)NNC(=O)c2ccc3ccccc3c2)cc1	-14.8%
CCO[C@@H]1OC(C(=O)N2CCOCC2)=C[C@H](C)[C@H]1CCCO	-21.4%
Cc1ccc(NC(=O)C2CCN(S(=O)(=O)c3ccc4c(c3)CCCC(=O)N4)CC2)c(Br)c1	-15.0%&16.2%
COc1ccccc1C(=O)N(Cc1nc(-c2cccc(C)c2)no1)C(C)C	-14.9%
Cc1ccc2c(=O)cc(C(=O)Nc3c(C(=O)c4ccc(F)cc4)oc4ccccc34)oc2c1C	8.8%

The list continues.
Molecule | VDR inhibitor
CCCCN1C(=O)C(=O)N(CC(=O)Nc2ccc(C(N)=O)cc2)C1=O | -1.9%
Cc1nn(CC(=O)N2CCc3ccccc3C2)c(C)c1[N+](=O)[O-] | -16.2%
CCOc1ccc(NC(=O)N(C2CCCCCC2)C2CCN(C(C)=O)CC2)cc1 | 22.1%
CCOC(=O)c1cc(NC(=O)c2ccccc2)c(=O)oc1-c1ccccc1 | -2.7%
O=C(CC1(O)C(=O)Nc2ccccc21)c1ccccc1O (centres undefined) | 2.0%
O=C(NC(C(=O)c1ccccc1)N1CCOCC1)c1ccccc1 (centres undefined) | 10.7%
COc1ccc(-c2nc(C#N)c(N3CCCCCC3)o2)cc1 | -8.0%
COc1ccc(/C=C/c2nc(C#N)c(NCCc3ccccc3)o2)cc1OC | -0.2%
CN(CC(=O)Nc1ccccc1C(F)(F)F)C(=O)c1ccc(N2C(=O)CCC2=O)cc1 | -6.4%
Cc1ccc(N2C(=O)CC3(CCCC3)CC2=O)cc1 | -0.8%
C[n+]1cc(C(=O)N2CCCCC2)ccc1/C=C/c1c[nH]c2ccccc12 | 29.2%
CN(C(=O)COC(=O)CSc1ccc(C(N)=O)cc1[N+](=O)[O-])C1CCCCC1 | -4.6%
COc1ccccc1NC(=O)NC1(C)CCS(=O)(=O)C1 (centres undefined) | -1.6%
Cc1cc(C)nc(N2CCC(C(=O)N3CCN(c4cc(Cl)ccc4C)CC3)CC2)n1 | -11.5%
Cn1cc(-c2nc3cncnc3n(C3CC3)c2=O)c2ccccc21 | 0.1%
CCCn1c(NC(=O)C2CCN(C(=O)c3ccc(F)cc3)CC2)nc2ccccc21 | -0.2%
Cc1c(NC(=O)C(C)(C)Oc2ccc(Cl)cc2)cccc1-c1nc2ccccc2o1 | -7.1%
CCOC(=O)C1=NN(C(=O)COc2ccccc2)C(O)(c2ccc(Br)cc2)C1 (centres undefined) | -0.2%
Cc1cccc(OCc2nnc(N)s2)c1 | u
COc1cc(C(=O)NCc2cccc3ccccc23)ccc1OCc1ccccc1 | -4.8%
CCOc1ccc(N2C(=O)CC(n3ccc(C)n3)C2=O)cc1 (centres undefined) | 1.2%
O=C(CN1C(=O)NC2(CCCCC2)C1=O)NCc1ccc2c(c1)OCO2 | -12.2%
O=C(CSc1n[nH]c(=O)[nH]c1=O)NC1CC1 | 1.1%
COc1ccc(CCN2C(=O)c3[nH]nc(-c4ccccc4O)c3C2c2ccc(OC)c(OC)c2)cc1 (centres undefined) | 3.0%
COc1ccc(OC)c2[nH]c(=O)c(CCNC(=O)C(=O)c3c[nH]c4ccccc34)cc12 | -9.8%
Nc1nnc(SCC(=O)N2CCCCC2)s1 | -3.5%
COc1cccc(CNC(=O)Cn2ccc3cc(S(=O)(=O)N4CCCC4)ccc32)c1 | -2.9%&19.0%
O=C(c1cccnc1Cl)N1CCOCC1 | u
COc1ccc(/C=N/NC(=O)c2ccc3c(c2)OCCO3)c(OC)c1 | -2.9%
COc1ccc(C(CC(=O)Nc2cc(C)ccn2)N2Cc3ccccc3C2=O)cc1 (centres undefined) | -16.4%
COc1ccc(NC(=O)c2cc(S(=O)(=O)N3CCCCC3)cn2C)cc1Cl | -17.7%
CCn1nnnc1SCC(=O)Nc1nc2ccccc2s1 | 0.8%
O=C(N/N=C/c1sc(=O)n(-c2ccccc2)c1Cl)c1ccncc1 | 11.8%
COc1ccc(S(=O)(=O)N2CCN(C)CC2)cc1Br | -9.7%
CCCN(Cc1cc2ccc(C)cc2[nH]c1=O)C(=O)c1cccnc1 | -2.6%
O=C(Nc1ccc2oc(-c3cccnc3)nc2c1)c1ccccc1F | -2.8%
O=S1(=O)NC(=NCC(c2ccco2)N2CCCCC2)c2ccccc21 (centres undefined) | u
O=C(NCc1ccccc1)Nc1cccn(Cc2ccccc2F)c1=O | 7.8%
O=c1[nH]c(=O)n(C2C[C@H](O)[C@@H](CO)O2)cc1C(F)(F)F (some centres undefined) | -6.4%&0.3%
CCOC(=O)N1CCN(c2c(N3CCN(c4ccc(F)cc4)CC3)c(=O)c2=O)CC1 | u
Cc1cc(C)n2nc(SCc3nnc(-c4ccccc4Br)o3)nc2n1 | -1.3%
COCCNC(=O)Cn1nc(C)c2c(C)n(-c3ccc(C)cc3)nc2c1=O | -0.3%
O=c1c(Cl)cc(Cl)nn1-c1ccccc1 | 5.5%
COc1cccc(NC(=O)c2ccccc2NC(=O)c2ccncc2)c1 | 6.3%
O=C1NN(c2cccc(Br)c2)C(=O)/C1=C\c1ccc(N2CCOCC2)cc1 | -10.6%
O=S(=O)(CC(CN1CCCCC1)N1CCCCC1)c1ccccc1 (centres undefined) | 1.0%
O=C(Nc1cc(Cl)ccc1F)c1ccc(-n2cncn2)c([N+](=O)[O-])c1 | 1.1%
COc1ccc(C(=O)NCCCOc2cccnc2)cc1OC1CCN(C(C)=O)CC1 | -8.8%
CC(=O)c1ccc(OCC(=O)NCC(c2ccco2)N2CCCCC2)cc1 (centres undefined) | -5.4%
CCOC(=O)Oc1ccc(C(=O)OCCCN(C)C)cc1OC | 1.9%
O=C(CCc1ccccc1)N[C@@H]1c2ccccc2CC[C@@H]1OCc1ccccc1 | -17.3%
Cc1ccc(C)c(N2CCN(CCCNC(=O)c3cnn(-c4ccccc4Cl)c3C3CCN(C(=O)OC(C)(C)C)CC3)CC2)c1 | 17.7%
COCC(C)NC(=O)c1cc2c(ccc3ccccc32)oc1=O (centres undefined) | -6.1%
COc1cccc(/C=N\NC(C)=O)c1OC/C=C/c1ccccc1 | -16.9%
O=C1CCCC2=C1C(c1ccncc1)Nc1ccccc1N2 (centres undefined) | 8.8%
CCOc1ccccc1NS(=O)(=O)c1cccc2nsnc12 | -14.2%
CCc1ccc(C(=O)NNC(=O)CCN2CCN(Cc3ccccc3)CC2)cc1 | 0.3%
O=C(Nc1ccccc1)N1CCC(C(=O)N2CCN(S(=O)(=O)c3cccc(F)c3)CC2)CC1 | 21.1%
O=C(Nc1ccnc(-c2cccnc2)n1)c1ccccc1Cl | 13.2%
Cc1ccc(C)c(NC(NC(=O)c2cccnc2)C(Cl)(Cl)Cl)c1 (centres undefined) | -2.0%
Cc1ccc(S(=O)(=O)Nc2ccccc2C(=O)N2CCCCC2C)c(C)c1NS(C)(=O)=O (centres undefined) | -0.3%
COc1ccccc1NC(=O)CSc1ncc2c(n1)-c1cc(Cl)ccc1N(Cc1ccccc1)S2(=O)=O | -7.9%

Part of the list above, as labelled records:
COC(CNC(=O)C1CCN(S(=O)(=O)c2cccc3nsnc23)CC1)OC
  VDR inhibitor = 0.5%

COc1ccc(CCN2C(=O)c3[nH]nc(-c4ccccc4O)c3C2c2ccc(OC)c(OC)c2)cc1 (centres undefined)
  VDR inhibitor = 3.0%

CCCn1c(NC(=O)C2CCN(C(=O)c3ccc(F)cc3)CC2)nc2ccccc21
  VDR inhibitor = -0.2%

CCOc1ccc(N2C(=O)CC(n3ccc(C)n3)C2=O)cc1 (centres undefined)
  VDR inhibitor = 1.2%

Source: PubChem BioAssay
